Bioassay records from PubChem BioAssay.
D2 PAM – human D2 receptor positive allosteric modulation. AID 624464. P14416. actives 0.23% (n = 360,000). potentiation, % (no concentration beside the values). DiscoveRx D2 beta-arrestin cells, luminescence, 90 min; 100% = 57 uM dopamine signal; active = potentiation of 50% or more; inconclusive = 30% to 50%; inactive = 30% or less;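 also: compound concentration not given in the record; tested on top of an EC20 dose of dopamine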
Target sequence (P14416 whole entry, looked up): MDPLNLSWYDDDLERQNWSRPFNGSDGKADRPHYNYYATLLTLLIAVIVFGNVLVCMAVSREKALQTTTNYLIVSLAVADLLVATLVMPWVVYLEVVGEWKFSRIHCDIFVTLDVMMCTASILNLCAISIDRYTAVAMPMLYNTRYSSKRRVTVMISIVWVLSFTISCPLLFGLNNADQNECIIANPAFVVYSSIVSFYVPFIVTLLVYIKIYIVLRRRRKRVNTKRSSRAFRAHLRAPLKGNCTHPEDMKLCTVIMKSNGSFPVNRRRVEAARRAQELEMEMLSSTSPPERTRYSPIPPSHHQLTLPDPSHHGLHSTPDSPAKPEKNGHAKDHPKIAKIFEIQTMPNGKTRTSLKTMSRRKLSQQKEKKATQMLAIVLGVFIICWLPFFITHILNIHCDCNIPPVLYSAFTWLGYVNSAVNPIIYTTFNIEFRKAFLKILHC
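PathHunter beta-arrestin assay in DiscoveRx D2 cells. Compounds were added with an EC20 of dopamine (50 nM final) for 90 min at 37 deg C. Luminescence was read 1 h after detection reagent, with 57 uM dopamine as the EC100 control.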
TRPML1 inh – human mucolipin-1 channel inhibition. Q9GZU1. TRPML1-inducible cells, Ca2+ dye fluorescence, FDSS; active compounds read low; inhibition of EC80 agonist-evoked calcium signal. activity change, negative = inhibition, % (concentration not given with the values). actives 0.02% (n = 390,000). AID 624415; in the data active means activity change below about -50%; inconclusive means about -30% to -50%; inactive means above about -30%;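 also: stimulus is agonist 54-4 at its EC80 concentration; % is scaled to controls: 0 for no effect and ±100 for the full control effect; the text of the record puts the active cut at -80%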
Target sequence (Q9GZU1 whole entry, looked up): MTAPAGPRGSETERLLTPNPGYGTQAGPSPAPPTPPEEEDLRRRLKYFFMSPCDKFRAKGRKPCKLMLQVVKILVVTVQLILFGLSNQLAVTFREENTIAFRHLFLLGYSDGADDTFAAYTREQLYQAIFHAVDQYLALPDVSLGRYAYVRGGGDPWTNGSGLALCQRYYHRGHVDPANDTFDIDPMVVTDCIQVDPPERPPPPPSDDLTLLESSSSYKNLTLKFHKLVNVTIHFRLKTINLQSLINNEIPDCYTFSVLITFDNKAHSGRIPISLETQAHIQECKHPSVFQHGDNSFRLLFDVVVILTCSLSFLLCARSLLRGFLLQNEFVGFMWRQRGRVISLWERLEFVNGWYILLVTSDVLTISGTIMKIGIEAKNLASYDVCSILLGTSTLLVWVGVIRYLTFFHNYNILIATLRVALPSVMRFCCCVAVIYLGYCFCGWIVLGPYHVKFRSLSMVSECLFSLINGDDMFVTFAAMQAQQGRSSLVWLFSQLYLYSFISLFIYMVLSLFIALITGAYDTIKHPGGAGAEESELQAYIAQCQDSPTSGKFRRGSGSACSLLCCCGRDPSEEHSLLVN
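Calcium fluorescence in TRPML1-DL cells induced overnight with Tet: a 110 s read after compound pin addition, then a 110 s antagonist read after challenge with 54-4 at 4 uM final (EC80).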
TRPV1 PAM – human TRPV1 potentiation; TRPV1-expressing cells, Fluo-8 calcium influx, capsaicin EC20 potentiation; host cell line not named in the record; control for the full effect not named in the record; potentiation, % at 8.33 µM; actives 0.02% (n = 320,000); AID 540277; active means potentiation above 80%; inconclusive means 30% to 80%; inactive means below 30%; also: 0% is about no effect
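Cells expressing TRPV1 were dye-loaded with Fluo-8 and read kinetically: 10 s baseline, 3 min after compound (agonist portion), then 2 min after EC20 capsaicin (allosteric enhancer portion). Calcium-bound dye fluorescence at 480/520 nm.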
CtBP-E1A inh – inhibitors of CtBP/E1A interaction; AlphaScreen GST-E1A/His-CtBP binding, 1536-well; active compounds read low; control for the full effect not named in the record; activity change, % (test concentration not listed); actives 0.49% (n = 340,000); AID 651724; in the data active means activity change below about -65%; inconclusive means about -30% to -65%; inactive means above about -30%; also: % is scaled to controls: 0 for no effect and ±100 for the full control effect
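GST-E1A and His-tagged CtBP (125 nM each as 5X stock) were preincubated with pin-transferred compound for 2 h at 37 °C in the dark, then glutathione donor and nickel acceptor beads were added for 1 h before AlphaScreen reading.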
TRPML1 agonist – agonists of human TRPML1 channel. Q9GZU1. TRPML1-expressing cells, Ca2+ dye fluorescence, FDSS; host cell line not named in the record; reference of the full effect not given here. activation, % (test concentration not listed). actives 0.12% (n = 410,000); in the data active = activation above about 50%; inconclusive = about 30% to 50%; inactive = below about 30%; also: 0% is about no effect; the text of the record puts the active cut at 80%
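Cells: TRPML1-DL, 1X Tet inducer, ~16 h at 37 degrees C/5% CO2. Dye: ABD Ca8 no-wash + quencher, 45-90 min RT. Read: 10 s baseline, compound add, 110 s agonist phase; 54-4 EC80 (4uM final), 110 s antagonist phase.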
Six1-Eya2 blk – blocks human Six1 binding to Eya2. Q15475+O00167. AlphaScreen GST-Six1/His-Eya2 binding, biochemical; active compounds read low; control for the full effect not named in the record. activity change, % (test concentration not listed). actives 0.56% (n = 360,000). AID 651725; in the data active = activity change below about -65%; inconclusive = about -30% to -65%; inactive = above about -30%; also: % is scaled to controls: 0 for no effect and ±100 for the full control effect
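AlphaScreen with GST-Six1 and His-Eya2 (5X mix: 250 nM and 500 nM), glutathione donor and nickel acceptor beads; buffer 50 mM Tris pH 8.0, 300 mM NaCl, 1 mM TCEP; 1 h at 37 C in the dark.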
* hit, by the source's call; ? = inconclusive; . = no result given; & = joins results of further samples.

Fields – Six1-Eya2 blk	CtBP-E1A inh	TRPML1 inh	TRPV1 PAM	TRPML1 agonist	D2 PAM
[1] COc1ccc(NC(=O)c2ccc(CN3CCc4ccccc4C3)cc2)cc1OC
    -14	2	2	-4	-0.5	-3
[2] COc1ccc(S(=O)(=O)Nc2cc3c4c(oc3c3ccccc23)CCCC4=O)cc1
    -6	0	-10	-4	-0.9	?
[3] CN(Cc1ccccc1)C(=O)CN(Cc1ccccc1)S(C)(=O)=O
    -8	-2	-10	-14	0.8	-4
[4] CCc1nc(Nc2ccccc2O)c2oc3ccccc3c2n1
    -5	-5	34	9	0.7	-9
[5] COC(=O)c1sc2nc3c(cc2c1N)CCCC3
    0	5	-9	-8	0.0	2
[6] COc1ccc(N2CCN(C(=O)C3CCN(C(=O)c4ccc([N+](=O)[O-])cc4)CC3)CC2)cc1
    3	7	19	-20	1.4	-4
[7] CCCc1cc(=O)oc2cc(C)cc(OCC(=O)NC(Cc3ccc(Cl)cc3)C(=O)O)c12 (stereo unspecified)
    -10	-3	.	6	.	-21
[8] Cc1ccccc1NC(=O)Cc1nc(COC(=O)C(C)(C)Oc2ccc(Cl)cc2)cs1
    10	0	22	.	1.3	-9
[9] NC(=O)c1cc[n+](Cc2ccc([N+](=O)[O-])cc2)cc1
    6	.	.	3	.	0
[10] CC1CN(S(=O)(=O)c2ccc(CN3C(=O)c4cccnc4C3=O)s2)c2ccccc2O1 (stereo unspecified)
    -7	-1	38	-5	-0.2	26
[11] CC(C)[C@@H](C(=O)NC1CC1)N1C(=O)N2CCc3c([nH]c4ccccc34)[C@@]2(C)C1=O
    7	24	.	10	.	-29
[12] Cc1nc2nc(SCC(=O)NCCCN3CCCCCC3)nn2c(C)c1Cc1ccccc1Cl
    -6	-12	20	0	-0.8	-14
[13] O=C(CCN1CCc2ccccc2C1)Nc1ccc(F)c(F)c1
    -1	5	.	-19	.	-34
[14] Cc1ccc(OCCn2c(NC(=O)c3ccco3)nc3ccccc32)cc1
    3	-2	-7	-6	0.2	-14
[15] Cc1ccc(Cl)cc1NC(=S)N1CCC(c2ccccc2)C1 (stereo unspecified)
    1	-2	36	-20	0.9	-6
[16] O=C(O)c1ccc(NC(=O)C2C3CCC(C3)C2C(=O)O)cc1 (stereo unspecified)
    16	-6	-6	3	-0.5	4
[17] CCOC(=O)Cc1csc(NC(=O)c2ccc(Cl)nc2)n1
    -2	-6	-1	24	0.8	19
[18] O=C1NC2(CCCCC2)N=C1c1ccccc1
    2	2	27	-10	0.2	-6
[19] COc1ccc(NC(=O)CN2C(=O)COc3ccc(S(=O)(=O)N4CCCCCC4)cc32)cc1
    -2	.	4&-9	15	-0.2&-0.9	-2
[20] O=C(Nc1nnc(S(=O)(=O)N2CCOCC2)s1)c1ccc(Cl)cc1
    0	2	14	10	0.6	-4
[21] CCc1ccc(C(C)NC(=O)Cc2ccc(F)cc2)cc1 (stereo unspecified)
    5	7	10	-10	0.4	-10
[22] Cc1cc2n(n1)C(c1ccco1)Nc1ccccc1-2 (stereo unspecified)
    -14	-12	-8	13	-0.8	0
[23] COC(=O)C1CCN(C(=O)c2c(-c3ccccc3Cl)noc2C)CC1
    0	0	-2	-7	-0.3	-2
[24] O=c1cc(CN2CCN(Cc3ccccc3)CC2)c2cc3c(cc2o1)CCC3
    -1	-5	-7	-7	0.4	-13
[25] O=c1cc(COc2ncnc3ccccc23)nc2sccn12
    -4	.	-3	-40	-0.6	-11
[26] COc1ccc(-c2nnc(SCc3nc4ccccc4c(=O)[nH]3)o2)cc1
    0	10	-3	.	0.7	6
[27] Cc1ccc(/C=N/Nc2cccc3cccnc23)c(O)c1
    -1	-2	-7	0	1.3	19
[28] Cc1ccc(S(=O)(=O)NCC(=O)NCC(=O)N(C)Cc2ccc3ccccc3c2)cc1C
    5	-3	1	-4	-0.7	-8
[29] COc1cc(/C=C/C(=O)OCC(=O)N2CCOCC2)ccc1OCC#N
    9	-2	5	20	0.5	-1
[30] Cc1ccc(OCCN2CCN(C(=O)CCC(=O)Nc3nnc(C)s3)CC2)cc1
    2	6	11	-4	-0.2	-16
[31] COc1ccc(NC(=O)C(=O)NCCCn2ccnc2)cc1
    4	-18	5	-27	0.2	-5
[32] CCCCCCN(C(=O)CCCN1C(=O)NC(c2ccc(-c3ccccc3)cc2)C(C(=O)OCc2ccccc2)=C1C)C(C)C(=O)NCCCC (stereo unspecified)
    0	-12	40	.	2.8	.
[33] CC1(C)NC(=O)N(CC(=O)Nc2ccc(-n3cnnn3)cc2)C1=O
    0	-8	12	.	0.4	-2
[34] Cc1ccc(C)c(NC(=O)C2CC(Cl)=CCC2C(=O)O)c1 (stereo unspecified)
    5	3	3	16	0.0	2
[35] CC(C)CNC(=O)COC(=O)/C=C/c1ccco1
    -4	8	-1	-4	-0.5	-5
[36] CC(C)CC(=O)N1CCN(S(C)(=O)=O)CC1
    6	-2	16	-16	1.3	-5
[37] C=CCOc1cccc(C2/C(=C(/O)c3ccc(Cl)cc3)C(=O)C(=O)N2CCN2CCOCC2)c1 (stereo unspecified)
    -1	-1	27	16	1.1	-12
[38] Cc1c(Cl)c([N+](=O)[O-])nn1CCCC(=O)O
    4	1	3	19	-0.4	-4
[39] CCN(CC)C(=O)C(Oc1ccc(S(=O)(=O)N2CCCC2)cc1[N+](=O)[O-])c1ccccc1 (stereo unspecified)
    -19	0	-6	-1	0.8	-4
[40] O=C(C1=NNCC1c1ccccc1)C1OC1c1ccccc1 (stereo unspecified)
    1	-25	-15	2	0.6	-7
[41] Cc1ccc(S(=O)(=O)NCCNS(=O)(=O)c2ccc(C)cc2)cc1
    4	3	-12	1	-0.3	1
[42] O=C(NCc1cccnc1)c1cccc(OC2CCN(Cc3ccc(CO)o3)CC2)c1
    8	-6	1	-5	0.1	-11
[43] C=CCC1(Cl)C(=O)C(Cl)=C(N2CCOCC2)C1(OC)OC (stereo unspecified)
    3	4	-4	3	-0.7	-3
[44] CCNS(=O)(=O)c1ccc(CCC(=O)Nc2ccc3c(c2)OCCO3)cc1
    -3	9	16	3	0.8	-1
[45] C=CCc1cc(OC)ccc1OCC(O)CN1CCN(c2ccc(OC)cc2)CC1 (stereo unspecified)
    ?	?	-2&22	6&2	0.2&0.7	-16&-2
[46] CN(CC(=O)Nc1ccc(Cl)c(Cl)c1)CC(=O)Nc1ccc2c(c1)OCO2
    -1	-12	17	16	0.0	-4
[47] COc1ccc(OCC(=O)Nc2nnc(S(=O)(=O)N3CCCCCC3)s2)cc1
    -3	0	-2&-2	?	-0.6&0.7	-1
[48] COc1ccc(NC2CCCN(C(=O)c3ccc4nccnc4c3)C2)cc1OC (stereo unspecified)
    -4	11	2	7	-0.7	3
[49] CSc1ccc(/C=N/Nc2cccc(C(=O)O)c2)cc1
    ?	-17	12	5	0.0	3
[50] COc1ccccc1CNC(=O)C1CC(c2c(Cl)cccc2Cl)=NO1 (stereo unspecified)
    4	-1	19	-19	-0.3	-9
[51] Nc1nc(SCC(=O)Nc2cccc(S(=O)(=O)N3CCCCCC3)c2)n[nH]1
    -24	-1	-5	-2	-0.2	5
[52] Cc1ccc(Nc2nc(C)nc3c2oc2ccccc23)cc1
    0	5	1	-11	2.7	-1
[53] CCOc1ccc(CCN2C(=S)N([C@@H](CC(C)C)CN3CCCC3CN3C(=S)NC[C@@H]3CC(C)C)C[C@@H]2CC(C)C)cc1 (stereo partly specified)
    -2	6	-12	.	-0.3	-8
[54] CCOc1ccc(S(=O)(=O)NCCC(=O)N2CC(C)OC(C)C2)cc1 (stereo unspecified)
    -2	1	80	-17	1.1	-68
[55] O=c1[nH]nc(CNc2ccc(Cl)cc2Cl)c2ccccc12
    -3	.	33	-2	-0.4	0
[56] O=C1COc2ccc(C(=O)COC(=O)CCc3ccc(S(=O)(=O)N4CCOCC4)cc3)cc2N1
    2	7	-8	2	-0.2	13
[57] COc1ccccc1-c1nnc(NC(=O)OCC(C)C)s1
    13	-1	32	0	1.2	-5
[58] CN(CC(=O)Nc1cccc(F)c1)C(=O)Cc1ccsc1
    0	3	-4	.	-0.1	-5
[59] Cn1c(CC(=O)Nc2ccccc2Cl)nnc1SCC(=O)NC1=NCCS1
    1	8	8	2	-0.2	5
[60] CCN(CC(=O)NCc1cccs1)C(=O)CCOc1ccccc1
    1	-2	-7	.	-0.6	2

A draw from above in order of heavy-atom count, highest first:
Fields – Six1-Eya2 blk	CtBP-E1A inh	TRPML1 inh	TRPV1 PAM	TRPML1 agonist	D2 PAM
[45] C=CCc1cc(OC)ccc1OCC(O)CN1CCN(c2ccc(OC)cc2)CC1 (stereo unspecified)
    ?	?	-2&22	6&2	0.2&0.7	-16&-2
[33] CC1(C)NC(=O)N(CC(=O)Nc2ccc(-n3cnnn3)cc2)C1=O
    0	-8	12	.	0.4	-2
[31] COc1ccc(NC(=O)C(=O)NCCCn2ccnc2)cc1
    4	-18	5	-27	0.2	-5

Next section:
Fields – Six1-Eya2 blk	CtBP-E1A inh	TRPML1 inh	TRPV1 PAM	TRPML1 agonist	D2 PAM
[61] COc1ccc(-c2nnc(CSc3ncnc4sc5c(c34)CCC5)o2)cc1OC
    16	7	5	14	-0.6	3
[62] Cc1cc(C(=O)NN=Cc2ccc(-c3ccc(F)cc3)o2)c(C)o1
    -9	.	-15	.	-1.6	-4
[63] COC(=O)c1cc(NCc2c(F)cccc2Cl)ccc1N1CCOCC1
    -14	1	8	6	-0.1	-5
[64] O=C(COc1ccc(S(=O)(=O)N2CCOCC2)cc1Cl)N1CCCC1
    4	1	10	8	-0.4	-1
[65] COc1ccc(Nc2cc(C)nc3ncnn23)c(OC)c1
    1	2	-1	1	2.3	2
[66] CCOC(=O)C1(Cc2ccccc2Cl)CCN(S(=O)(=O)N(C)C)CC1
    1	0	-7	-9	-1.4	2
[67] O=C(Oc1ccc(OC(=O)c2ccncc2)cc1)c1ccncc1
    -7	-3	9	.	1.0	-8
[68] COc1ccccc1CN1CC(C(=O)N2CCCCO2)CCC1=O (stereo unspecified)
    8	5	-15	10	5.5	-9
[69] Cc1ccc(S(=O)(=O)NCCC(=O)NNC(=O)C2COc3ccccc3O2)cc1 (stereo unspecified)
    8	-2	-1	-13	0.8	-1
[70] CCN(CCCNC(=O)c1[nH]c(C)c(C(C)=O)c1C)c1cccc(C)c1
    -17	-18	3	4	1.7	-24
[71] CCCC(=O)Nc1cc(S(=O)(=O)N2CCOCC2)ccc1N1CCCCC1
    -11	-3	-12	.	2.2	-35
[72] CCC(C)NC(=O)C1CCN(S(=O)(=O)c2ccc(-n3cnnn3)cc2)CC1 (stereo unspecified)
    -6	2	16	-4	0.1	2
[73] COc1ccccc1N1CCN(C(=O)c2cc(-c3ccccc3)nc3c2cnn3C(C)C)CC1
    -15	0	0	.	0.5	-3
[74] CCN(CC)C(=O)Cn1cc(C(=O)C(=O)N2CCN(c3ccc([N+](=O)[O-])cc3)CC2)c2ccccc21
    -13	-1	23	11	-0.6	16
[75] O=C(N/N=C/c1ccccc1O)C1CC(=O)N(c2ccc(Cl)cc2)C1 (stereo unspecified)
    ?	-84*	-4	-9	-0.6	-19
[76] CCOC1=C2CN(S(=O)(=O)c3ccc(C)cc3)[C@H](c3ccccc3)C[C@@H]2N(S(=O)(=O)c2ccc(Br)cc2)[C@H](c2ccccc2)C1
    7	0	.	.	30	-10
[77] Cc1ccc(-c2cn(C[C@H]3CC[C@@H]([C@@H]4CC[C@H](Cn5cc(-c6ccc(C)cc6)nn5)O4)O3)nn2)cc1
    0	0	10	-10	-0.5	-16
